High-throughput results as filed in PubChem BioAssay.
CSC inhib: blocks cancer stem cells | cancer stem cell-like cells viability, luminescence | inhibition, % at 7.5 µM | 300,000 tested, 1.1% active;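 active = mean at 75% or more and at least half the replicates too; inconclusive = mean and replicates disagree; tested in HMLE shEcad cells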;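 also: 0% = median of negative and 100% = median of positive control wells; the first replicate is given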
Yeast UUG start: alters start codon recognition fidelity in yeast; S. cerevisiae UUG-firefly luciferase reporter, luminescence/redox ratio; activity score, % at 18.7 µM; 350,000 tested, 0.13% active;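 active = replicate mean at a twofold rise or more, about +100% in these data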;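 also: firefly luciferase made from a UUG start codon reports start codon fidelity; reporter light over untreated wells divided by growth signal over untreated wells; some hits fall short of that in this replicate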
Env fusion inh: inhibitors of HIV Env-mediated cell fusion; HeLa-JRFL Env/CEM21 cell fusion, luciferase; inhibition, % at 12.3 µM; 360,000 tested, 1.1% active;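 active = mean replicate inhibition score of at least 50 and every replicate individually at or above 50; inconclusive = only one of the two criteria met; inactive = mean below 50 and not all replicates reaching 50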;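 also: 0% = plate neutral controls and 100% = maraviroc near 300 nM; one replicate is shown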
Rce1 inhib: yeast Ras-converting enzyme inhibition | 290,000 tested, 0.27% active | calls only | yeast membranes, quenched prenylated peptide cleavage fluorescence;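 active = fall in fluorescence gain of 50% or more versus controls, with final raw signal at or below 3038400; inconclusive = same 50% fall but final raw signal above 3038400; inactive = fall in fluorescence gain under 50%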;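 also: plate controls were neutral control wells for no effect and wells lacking membranes for full effect; tested at 10 µM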
MT1-MMP act inh: MT1-MMP (human) activation inhibition | HT1080 RFP-PRO-GFP cells, GFP/RFP ratio fluorescence, overnight; percent of plate control window, DMSO zero | GFP/RFP ratio change, % at 20 µM | 360,000 tested, 0.061% active | AID 651647;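 active = GFP/RFP ratio change of at least 30% with cell ATP level not reduced by more than half and red fluorescence within 50% of control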; also: strong numbers were not always called active
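system = RFP-PRO-GFP reporter HT1080 cells | dosing = 20 µM single dose, 1% DMSO | timing = overnight cell settling, then overnight compound exposure, 37 °C, 5% CO2 | read-out basis = GFP/RFP fluorescence ratio | controls = DMSO and RFP-L50D-GFP cell wells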
eIF4H inh: inhibitors of RNA binding by human eIF4H. Q15056. eIF4H fluorescence polarization binding assay. inhibition, % at 35 µM. 290,000 tested, 0.94% active;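 active = 50% or more with normal probe brightness, or confirmed in later tests; inconclusive = above 50% with abnormal brightness, or retests that disagree; inactive = below 50% or failed in later tests; about a fifth of its hits are not listed in these tables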;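 also: calls also rest on retests at 20 µM and on dose response follow-up; 0% = protein and probe with vehicle and 100% = probe without protein; strong numbers were not always called active; many hits fall short of the cut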
PABP polyA inh: blocks human PABP binding to poly(A) RNA | P11940 | fluorescence polarization | inhibition, % at 35 µM | 290,000 tested, 1% active;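 active = 50% or more with normal probe brightness, or confirmed in later tests; inconclusive = above 50% with abnormal brightness, or retests that disagree; inactive = below 50% or failed in later tests; about a fifth of its hits are not listed in these tables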;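 also: calls also rest on retests at 20 µM and on dose response follow-up; controls were probe without protein and protein plus probe with vehicle; some compounds called inactive have numbers as strong as hits; many hits fall short of the cut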
Target sequence (P11940 whole entry, looked up): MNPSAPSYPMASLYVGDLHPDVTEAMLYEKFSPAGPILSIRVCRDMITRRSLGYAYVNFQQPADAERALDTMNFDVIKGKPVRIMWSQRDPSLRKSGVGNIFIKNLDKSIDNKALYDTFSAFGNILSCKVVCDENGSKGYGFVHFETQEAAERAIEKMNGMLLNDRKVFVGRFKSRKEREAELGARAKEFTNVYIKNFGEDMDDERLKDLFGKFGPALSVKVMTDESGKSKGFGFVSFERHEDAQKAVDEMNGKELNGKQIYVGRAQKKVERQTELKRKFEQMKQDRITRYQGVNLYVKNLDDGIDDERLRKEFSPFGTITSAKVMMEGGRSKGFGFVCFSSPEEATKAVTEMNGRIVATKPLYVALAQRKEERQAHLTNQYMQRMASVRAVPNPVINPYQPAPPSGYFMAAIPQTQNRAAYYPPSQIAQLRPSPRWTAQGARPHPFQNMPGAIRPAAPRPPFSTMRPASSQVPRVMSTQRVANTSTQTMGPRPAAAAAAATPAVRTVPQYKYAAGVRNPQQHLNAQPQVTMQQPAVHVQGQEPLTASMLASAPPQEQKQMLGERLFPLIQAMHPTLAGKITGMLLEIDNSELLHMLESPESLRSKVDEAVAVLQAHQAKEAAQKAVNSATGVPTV
eIF4H inh retest: second read-out of eIF4H inh, no call of its own (marks repeat the call); inhibition, %; compound at 20 µM; confirmation average;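 mean of two retest wells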
PABP polyA inh retest: recorded beside PABP polyA inh, whose call it bears; inhibition, %; compound at 20 µM; confirmation repeats;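 mean of two retest wells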
MT1-MMP act inh RFP: recorded beside MT1-MMP act inh, whose call it bears; RFP signal change, %; measured here: RFP expression control read;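 0 = vehicle wells; hits needed this value within 50% of zero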
Starred values were filed as active, the others as inactive; i = inactive; ? = inconclusive; . = not tested or not shown.

SMILES	CSC inhib	Yeast UUG start	Env fusion inh	Rce1 inhib	MT1-MMP act inh	MT1-MMP act inh RFP	eIF4H inh	PABP polyA inh	others
O=C(CCn1c(=O)[nH]c2ccccc2c1=O)Nc1ccccc1	9	-11	-35	i	1	4	-12	-12
COc1ccccc1NC(=O)N1CCN(c2cccc(C(F)(F)F)c2)CC1	10	-8	4	i	4	3	-6	-1
O=C(C[C@H]1C/C=C\CCCCC(=O)OC[C@H]2CCCN2C1=O)N[C@H](CO)Cc1ccccc1	.	4	-8	.	-3	2	.	.
CC(c1ccccc1)c1nnc(N)s1 (stereo not given)	-10	.	13	i	1	4	-6	4
COC(=O)CCC(=O)OC1(C)C(=O)C=C2C=C(C3CC3)N(c3ccccc3)C=C2C1=O (stereo not given)	2	3	-14	i	-3	6	?	?
Cc1cc(C)cc(NC(=O)CCOc2ccccc2)c1	-8	-16	-7	i	1	6	-6	7
Cc1ccc(C(=O)N/C(=C/c2ccc(Cl)cc2)C(=O)NCC2CCCO2)cc1 (stereo not given)	-7	.	6	i	4	5	5	25
Cc1ccc(/C=C/C(=O)O)cc1S(=O)(=O)N1CCC(Cc2ccccc2)CC1	0	16	-28	i	1	7	4	11
CCOC(=O)c1c(C)[nH]c(C(=O)COC(=O)COc2ccccc2C)c1C	-6	-8	13	.	-1	4	3	4
COc1ccc(CNc2ncnc3c2[nH]c2ccccc23)cc1	15	-10	22	i	7	-30	-6	2
O=C(Nc1cc(Cl)cc(Cl)c1)c1ccc(Cn2c(=O)[nH]c3ccsc3c2=O)cc1	?	15	.	i	3	1	6	-1
CC1CCCN(C(=O)COC(=O)c2cc([N+](=O)[O-])ccc2N2CCOCC2)C1 (stereo not given)	.	.	2	i	5	1	.	.
Cc1onc(-c2c(F)cccc2Cl)c1C(=O)Nc1ccccc1N1CCOCC1	0	-13	23	i	-1	-7	6	1
O=C(NCCc1ccccc1)c1ccc2c(c1)OCCO2	3	-91	92*	i	1	4	2	2
COc1ccc(/C=C/C(=O)Oc2cc(C)[nH]c(=O)c2[N+](=O)[O-])cc1OC	-4	.	1	i	3	-5	-3	7
CCOC(=O)C1(C)CCN1C(=O)/C=C/c1ccccc1 (stereo not given)	.	-11	-7	.	0	2	.	.
CC(=O)N(CCN(C(C)=O)c1ccccc1)c1ccccc1	-4	-11	-41	i	2	-1	5	6
Clc1ccccc1-c1nnc2sc(-c3ccc(Br)o3)nn12	-6	-6	17	i	-3	-1	7	-3
COCCn1c(COc2cccc(OC)c2)nnc1SCC(=O)N1CCOCC1	-3	.	.	i	3	0	0	-12
O=S(=O)(NCC1(N2CCOCC2)CCCCC1)c1ccc(F)cc1	-10	-28	-74	i	0	2	.	.
CCCCNC(=O)COC(=O)c1cc(C)oc1C	3	.	10	i	-6	0	4	2
C=CCOc1c(Br)cc(CNn2c(C)n[nH]c2=S)cc1OCC	-1	1	8	i	2	-2	-1	-4
CC1CCCCN1C(=O)CSc1nnc(-c2cccnc2)o1 (stereo not given)	-18	-18	16	.	0	1	3	1
CCC/C=C1/CCCOC(C(=O)NCc2ccccc2)(C(F)(F)F)C1 (stereo not given)	-8	-4	34	i	4	10	.	.
COCn1c(COc2ccc3ccccc3c2)nc2ccccc21	10	-21	.	i	-3	-6	-4	11
O=C(O)c1cccc(Cn2c(Cl)c(/C=N/NC(=O)c3cccc(O)c3)sc2=O)c1	-4	-2	2	i	1	4	-16	28
COc1cccc(OCC(=O)Nc2ccccc2C(=O)Nc2ccc(C(=O)O)cc2)c1	-8	-11	11	i	-6	2	-7	2
Cc1cccc(-c2nc(CS(=O)CC(=O)NC3CCCC3)c(C)o2)c1 (stereo not given)	.	-1	12	.	.	.	-3	9
Cc1cc(NC(=O)c2cccs2)cc(-c2nc3ncccc3o2)c1O	-5	-12	10	i	5	0	-3	11
c1csc(-c2nc(-c3ccc(-c4ccon4)s3)no2)c1	-8	.	-122	i	4	1	-3	-5
O=C(CN(Cc1ccccc1F)C(=O)Cn1nnc(-c2cccs2)n1)NCC1CCCO1 (stereo not given)	1	-24	.	i	7	6	-12	0
COc1cccc(C(=O)Nc2cccc(SC)c2)c1	-2	-4	.	i	-1	1	-12	0
Cc1ccc(S(=O)(=O)NNC(=O)C2Cc3c(ccc4ccccc34)O2)cc1 (stereo not given)	1	-1	8	i	1	-10	-4	-1
O=S(=O)(c1ccc(SCCOc2ccccc2)nc1)N1CCCC1	-1	-5	.	.	1	-8	.	.
COC(=O)c1ccc(NC(=O)CSc2nnc(-c3cccnc3)o2)cc1	1	-15	3	i	0	2	.	.
CC(C)C(c1nnnn1C1CCCCC1)N1CCN(c2ncccn2)CC1 (stereo not given)	-12	-8	-36	i	-14	-14	-1	-7
CCCCc1c(C)[nH]c(C(=O)OCC)c1C	-5	.	1	i	1	1	13	10
Cc1ccc(-c2nnn(CC(=O)Nc3ccccc3-c3ccccc3)n2)c(-n2cnnn2)c1	.	18	.	i	2	-1	4	14
O=C(Nc1ccccn1)c1ccc2ccccc2n1	-7	-32	-423	i	3	-4	-1	10
C=CCNC(=O)c1cc2c(=O)n3cccc(C)c3nc2s1	1	10	-14	i	0	0	-2	7
O=C(COc1ccc([N+](=O)[O-])cc1)NN=C1CCCC1	-4	-8	.	i	9	-3	4	-10
N#Cc1cc(C(=O)c2ccccc2OCC(=O)Nc2ccccc2)cn(C2CCCCC2)c1=O	-8	.	-3	i	1	1	-8	4
O=C(Cn1cnc2c(cnn2-c2ccccc2)c1=O)NCCc1ccccc1	3	-15	.	i	7	6	-9	6
CS(=O)(=O)N(CC(=O)Nc1cc(Cl)ccc1Cl)c1ccccc1Cl	6	-6	-99	i	-1	-2	-1	5
O=c1cc(-c2ccccc2)nc(N2CCCCC2)[nH]1	-11	-10	-5	i	8	0	-12	-2
Cn1c(COc2ccc(F)cc2)nnc1SCC(=O)NC1CC1	-7	-10	-9	i	0	3	6	4
COc1ccc(C(=O)NCCNC(=O)c2cnccn2)cc1OC	.	-9	5	i	0	4	1	5
CCN(CC)C(=O)CSc1ncnc2c1cnn2Cc1ccccc1	-9	8	.	i	3	0	2	0
CCc1ccc(/C([O-])=C(/C(=S)NCCN2CCOCC2)[n+]2ccccc2)cc1	.	-11	7	i	-1	3	6	-16
Cc1noc(C)c1CSCC(=O)N(C)CC(=O)Nc1ccc(Cl)c(Cl)c1	-13	-16	23	i	-2	-7	.	.
CCC(C)c1ccc(NC(=O)C2CCN(c3ccc(C(F)(F)F)cn3)CC2)cc1 (stereo not given)	8	.	42	i	4	-6	-2	5
CC(C)(C)OC(=O)C[C@@H]1C/C=C\C[C@H](CC(=O)N[C@H](CO)Cc2ccccc2)C(=O)N[C@H](Cc2ccccc2)COC1=O	-9	22	-3	.	5	-7	.	.
O=c1c(Br)c(N2CCCC2)cnn1-c1ccccc1	-1	-17	.	i	0	3	-1	-7
CCCCNC(=O)C1(C)CCCCN1Cc1ccc2ccccc2c1 (stereo not given)	.	-6	-6	.	-1	0	.	.
Clc1cccc(CN2CCC(Cc3ccccc3)CC2)c1	44	10	-40	i	20	-1	2	7
O=C(COC(=O)Cc1ccccc1F)Nc1ccc(SC(F)F)cc1	-3	-14	-15	i	-2	1	3	-3
Cc1cc(=O)oc2c(C)c(OC(C)C(=O)NCC3CCC(C(=O)O)CC3)ccc12 (stereo not given)	-15	-13	.	i	8	10	-11	-4
O=C(N/N=C/c1c[nH]c2ccc(Br)cc12)c1ccn(Cc2ccc(Cl)cc2)n1	7	-19	.	i	-4	-11	-1	-10
O=C(NC1CCCC1)C(c1ccccc1)N(C(=O)c1ccno1)c1ccccc1 (stereo not given)	11	9	.	.	-5	1	-4	1
COC(=O)c1ccccc1NC(=O)COC(=O)c1ccco1	-14	-14	-16	i	1	5	11	14

(more compounds)
SMILES	CSC inhib	Yeast UUG start	Env fusion inh	Rce1 inhib	MT1-MMP act inh	MT1-MMP act inh RFP	eIF4H inh	PABP polyA inh	others
COc1cc(N2Cc3ccccc3C2)ccc1C=O	-19	-38	-63	i	-6	-1	2	13
O=C1C(NS(=O)(=O)c2cccs2)=C(N2CCN(c3cccc(Cl)c3)CC2)C(=O)c2ccccc21	3	-17	.	i	6	-4	2.3*	51*	eIF4H inh retest=90*;PABP polyA inh retest=87*
CCC12CN(S(=O)(=O)c3ccc(C)cc3)CC(CC)(CN(S(=O)(=O)c3ccc(C)cc3)C1)C2=O	.	-8	109*	.	-4	-2	-9	11
O=C(CS(=O)CC(=O)Nc1ccccc1-c1ccccc1)Nc1ccc(F)cc1 (stereo not given)	-5	-9	9	i	7	3	-4	-2
CC(=O)Nc1ccc(S(=O)(=O)N2CCN(C3CCCCCCC3)CC2)cc1	15	-17	-36	i	4	1	-4	5
CCOc1ccc(OCCOCCOc2ccccc2Cl)cc1	19	0	12	i	0	0	2	-2
COc1ccc(C2=Nc3cc(C)ccc3OC2)cc1	5	.	.	i	2	3	6	7
N=c1c(C(=O)NC2CCCCC2)cc2c(=O)n3ccccc3nc2n1CCc1ccccc1	-4	-8	-11	i	-1	-4	-5	-17
Cc1ccc(/C=N/NC(=O)CSc2nc3nc(C)cc(C)n3n2)cc1	-10	-21	.	i	5	4	-2	-10
CCOC(=O)C1=CN(CC)S(=O)(=O)NC1c1ccc(C(F)(F)F)cc1 (stereo not given)	.	5	9	.	5	0	.	.

Some of these compounds in order of molecular weight, descending.
SMILES	CSC inhib	Yeast UUG start	Env fusion inh	Rce1 inhib	MT1-MMP act inh	MT1-MMP act inh RFP	eIF4H inh	PABP polyA inh	others
O=C1C(NS(=O)(=O)c2cccs2)=C(N2CCN(c3cccc(Cl)c3)CC2)C(=O)c2ccccc21	3	-17	.	i	6	-4	2.3*	51*	eIF4H inh retest=90*;PABP polyA inh retest=87*
CCC12CN(S(=O)(=O)c3ccc(C)cc3)CC(CC)(CN(S(=O)(=O)c3ccc(C)cc3)C1)C2=O	.	-8	109*	.	-4	-2	-9	11
O=C(N/N=C/c1c[nH]c2ccc(Br)cc12)c1ccn(Cc2ccc(Cl)cc2)n1	7	-19	.	i	-4	-11	-1	-10
N=c1c(C(=O)NC2CCCCC2)cc2c(=O)n3ccccc3nc2n1CCc1ccccc1	-4	-8	-11	i	-1	-4	-5	-17
O=C(CS(=O)CC(=O)Nc1ccccc1-c1ccccc1)Nc1ccc(F)cc1 (stereo not given)	-5	-9	9	i	7	3	-4	-2
Cc1cc(=O)oc2c(C)c(OC(C)C(=O)NCC3CCC(C(=O)O)CC3)ccc12 (stereo not given)	-15	-13	.	i	8	10	-11	-4
O=C(NC1CCCC1)C(c1ccccc1)N(C(=O)c1ccno1)c1ccccc1 (stereo not given)	11	9	.	.	-5	1	-4	1
O=C(COC(=O)Cc1ccccc1F)Nc1ccc(SC(F)F)cc1	-3	-14	-15	i	-2	1	3	-3
Cc1ccc(/C=N/NC(=O)CSc2nc3nc(C)cc(C)n3n2)cc1	-10	-21	.	i	5	4	-2	-10
CCOc1ccc(OCCOCCOc2ccccc2Cl)cc1	19	0	12	i	0	0	2	-2
COC(=O)c1ccccc1NC(=O)COC(=O)c1ccco1	-14	-14	-16	i	1	5	11	14
Clc1cccc(CN2CCC(Cc3ccccc3)CC2)c1	44	10	-40	i	20	-1	2	7
COc1ccc(C2=Nc3cc(C)ccc3OC2)cc1	5	.	.	i	2	3	6	7

A portion of the library; the hit share may differ from the screen's.
